FGF22 binding – FGF22 (human) thermal shift binding; Q9HCT0; recombinant FGF22 thermal shift, SYPRO orange fluorescence; percent of sucrose octasulfate shift, DMSO zero; calls only at 9.99 µM; 1.5% of 340,000 active;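 active means melting point raised past a set limit in the mean and every replicate; three in four hits are not shown here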
Target sequence (Q9HCT0 whole entry, looked up): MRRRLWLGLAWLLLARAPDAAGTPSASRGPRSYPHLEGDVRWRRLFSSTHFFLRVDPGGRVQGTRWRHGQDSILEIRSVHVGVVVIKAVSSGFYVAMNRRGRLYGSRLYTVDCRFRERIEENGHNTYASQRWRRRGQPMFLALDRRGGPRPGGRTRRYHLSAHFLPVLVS
Ecoli rRNA inh – selective bacterial rRNA inhibition in E. coli; 1.6% of 350,000 active; GFP signal change (wild-type ribosome), % (no concentration beside the values); E. coli WT GFP vs humanized-ribosome RFP mutants, fluorescence, 24 h; hits give low values; DMSO median 0, no signal -100;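 active means significant combined selectivity score with lowered wild-type GFP, culture density cut under 30%, mutant RFP and density less affected; inactive means any of these conditions unmet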; further: one replicate is shown; some compounds called inactive have numbers as strong as hits
AF4-AF9 inh – inhibitors of human MLL-AF4/AF9 interaction. AlphaScreen, biotin-AF4 peptide binding to FLAG-AF9. inhibition, % at 10 µM. P42568. 0.47% of 350,000 active;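 active means every replicate reaching a set inhibition limit, whatever the replicate mean, cut at about 25% in these data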;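 further: 0% = plate neutral control median and 100% = total signal loss; the record names both 10 and 1 µM as test concentration; the first replicate is given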
Target sequence (P42568 whole entry, looked up): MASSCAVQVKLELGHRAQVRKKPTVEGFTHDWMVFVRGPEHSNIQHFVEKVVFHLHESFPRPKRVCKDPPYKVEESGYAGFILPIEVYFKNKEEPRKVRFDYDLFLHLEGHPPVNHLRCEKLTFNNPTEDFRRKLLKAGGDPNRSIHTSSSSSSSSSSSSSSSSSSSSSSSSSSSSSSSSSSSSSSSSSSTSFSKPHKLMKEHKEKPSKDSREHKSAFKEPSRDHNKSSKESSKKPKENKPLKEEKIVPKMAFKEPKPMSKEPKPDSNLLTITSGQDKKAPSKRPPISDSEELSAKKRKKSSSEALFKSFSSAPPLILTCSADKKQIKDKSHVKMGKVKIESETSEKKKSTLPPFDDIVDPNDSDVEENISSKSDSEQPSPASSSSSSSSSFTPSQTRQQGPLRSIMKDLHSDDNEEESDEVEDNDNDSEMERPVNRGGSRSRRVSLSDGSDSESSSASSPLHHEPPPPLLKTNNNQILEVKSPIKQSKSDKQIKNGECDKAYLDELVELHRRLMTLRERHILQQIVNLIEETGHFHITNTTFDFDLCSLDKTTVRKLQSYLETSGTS
Ecoli rRNA inh OD600 – further read-out of Ecoli rRNA inh, marked with its call; OD600 change, %; measured here: OD600 growth;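 optical density of the mix in the first replicate; 0 = DMSO median and -100 = no signal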
Ecoli rRNA inh RFP – further read-out of Ecoli rRNA inh, marked with its call; RFP signal change, %; measured here: RFP humanized mutant strains;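 first replicate; 0 = DMSO median and -100 = no signal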
The depositor's hits bear a star; i = inactive; & = joins results of further samples.

1	CCCC#Cc1ccc([C@H]2[C@@H](CO)N3CCCCN(C(=O)Cc4ccccn4)C[C@@H]23)cc1
2	COC(=O)[C@H]1[C@H](CO)[C@H]2Cn3c(ccc(-c4cccc(OC)c4)c3=O)[C@@H]1N2C(=O)c1ccccc1F
3	CC1(C)C(=O)CCC2C1=CCC1C2CCC2(C)C(O)CCC12 (stereo not given)
4	COc1ccc(CN2Cc3cc(N4CCCCC4)ccc3-n3nncc3C2)cc1
5	CC1CC2C(C(O)CC3(C)C(O)CCC23)C2(C)CCC(=O)C=C12 (stereo not given)
6	COC(=O)[C@@H]1[C@@H](CO)[C@@H]2Cn3c(ccc(C4=CCCCC4)c3=O)[C@H]1N2C(=O)NC(C)C
7	COc1cccc(C(c2nnnn2C2CCCCC2)N2CCC3(CC2)C(=O)NCN3c2ccccc2)c1OC (stereo not given)
8	CC1CC(C)OP(=O)(OCCC#N)O1 (stereo not given)

assay / compound	1	2	3	4	5	6	7	8
Ecoli rRNA inh RFP	4.7	0.5	6.6	2.6	2.7	-4.6	-0.7	-4.6
FGF22 binding	i	i	i	i	i	i	i	i
AF4-AF9 inh	1.3	2.2	-0.1	0.0	-1.9	0.4	6.8	0.7
Ecoli rRNA inh OD600	3.9	-2.7	-65.2	-21.6	-7.0	-7.5	8.1	-2.4
Ecoli rRNA inh	4.1	-5.1	-38.8	-18.1	-13.1	-4.2	13.7	-4.6

9	CCCCn1nnnc1C(c1cccc2ccccc12)N1CCC2(CC1)C(=O)NCN2c1ccccc1 (stereo not given)
10	COC(=O)[C@H]1[C@H](CO)[C@H]2Cn3c(ccc(-c4cccnc4)c3=O)[C@@H]1N2S(=O)(=O)c1ccccc1F
11	CC12C=CC(=O)C=C1CC(O)C1C2CCC2(C)C1CCC2(C)O (stereo not given)
12	CC(C)CC#Cc1ccc([C@@H]2[C@H](CO)N3CCCCN(C(=O)Cc4ccccn4)C[C@@H]23)cc1
13	O=C(Cc1ccccc1)N1CCCCN2[C@@H](CO)[C@H](c3ccc(C#Cc4ccccc4)cc3)[C@@H]2C1
14	N#CC(C#N)=Cc1ccc(C=C(C#N)C#N)cc1
15	CS(=O)(=O)c1ccc(C2=C(CNC(=O)c3nccs3)[C@H]3CC[C@@H](C2)N3Cc2ccccc2)cc1
16	CCOc1ccc(-c2cc(C(=O)N3CCC4(CC3)OCCO4)c3ccccc3n2)cc1

assay / compound	9	10	11	12	13	14	15	16
Ecoli rRNA inh RFP	3.9	0.3	-4.3	5.7	-11.3	4.0	1.1	-2.2
FGF22 binding	i	i	i	i	i	i	i	i
AF4-AF9 inh	-9.5	0.6	-8.0	6.5	0.6	-10.0	-7.1	6.7
Ecoli rRNA inh OD600	-0.3	8.8	4.4	-32.0	-74.7	11.3	4.1	14.8
Ecoli rRNA inh	-0.6	0.9	11.3	-1.8	-54.9	10.8	1.1	16.8

17	C/C=C/c1ccc([C@@H]2[C@H]3CN(C(=O)Cc4cccnc4)CCCCN3[C@H]2CO)cc1
18	O=C1NCN(c2ccccc2)C12CCN(C(c1cccc3ccccc13)c1nnnn1Cc1ccccc1)CC2 (stereo not given)
19	N#Cc1cccc(-c2ccc([C@@H]3[C@H](CO)N4CCCCN(C(=O)Cc5ccncc5)C[C@@H]34)cc2)c1
20	NC(Cc1ccc(Cl)cc1)c1csc(Nc2ccccn2)n1 (stereo not given)
21	NC(Cc1ccc(Cl)cc1)c1csc(Nc2ncccn2)n1 (stereo not given)
22	O=C1NCN(c2ccccc2)C12CCN(C(c1cccs1)c1nnnn1C1CCCC1)CC2 (stereo not given)
23	CC1=C(O)C(=O)C=C2C1=CC=C1C2(C)CCC2(C)C3CC(C)(C(=O)O)CCC3(C)CCC12C (stereo not given)
24	CCC1CN1P1(=O)OCC(C)([N+](=O)[O-])CO1 (stereo not given)

assay / compound	17	18	19	20	21	22	23	24
Ecoli rRNA inh RFP	2.8	8.8	-3.9	-22.6	1.8	4.4	-3.4	-4.9
FGF22 binding	i	i	i	i	i	i	i	i
AF4-AF9 inh	-1.6	6.0	-0.3	3.9	0.2	2.8	-1.4	-3.7
Ecoli rRNA inh OD600	1.2	-11.8	-15.9	-81.5	6.3	8.9	7.6	14.5
Ecoli rRNA inh	-0.5	-6.6	1.4	-57.3	5.2	11.3	3.0	5.0

25	CCN1[C@@H]2Cn3c(ccc(-c4cccc(OC)c4)c3=O)[C@H]1[C@@H](C(=O)OC)[C@@H]2CO
26	NC1CC2CCCCC2CC1(O)c1ccccc1 (stereo not given)
27	CC12CCC3C(CCC4CC(=O)CCC43C)C1CC(=NO)C2=O (stereo not given)
28	c1ccc(N2C3C4CC(C5CCCC54)C32)cc1 (stereo not given)
29	COCC#Cc1ccc([C@@H]2[C@@H](CO)N3CCCCN(C(=O)Cc4ccccn4)C[C@@H]23)cc1
30	O=C(O)[C@@H]1[C@@H](CO)[C@@H]2Cn3c(ccc(-c4cncnc4)c3=O)[C@H]1N2C(=O)NC1CCCC1
31	O=S(=O)(c1ccccc1)N1Cc2ccccc2-n2nncc2C1
32	c1ccc(-c2ccc(CN3Cc4ccccc4-n4nncc4C3)cc2)cc1

assay / compound	25	26	27	28	29	30	31	32
Ecoli rRNA inh RFP	-0.5	-4.7	4.3*	-0.9	-1.2	-6.0	-2.9	-12.7
FGF22 binding	i	i	i	i	i	i	i	i
AF4-AF9 inh	-1.3	0.8	-1.1	10.6	-5.9	-1.8	0.3	2.0
Ecoli rRNA inh OD600	7.9	-11.0	-10.0*	9.9	1.2	5.7	-1.9	-67.8
Ecoli rRNA inh	1.5	4.6	-22.0*	4.5	1.6	3.5	-10.3	-37.2

33	CCCN1[C@@H]2c3ccc(-c4ccccc4)c(=O)n3C[C@H]1[C@H](CO)[C@H]2C(=O)OC
34	CC(C)(C)C(=O)N1Cc2ccccc2-n2nncc2C1
35	COC(=O)[C@H]1[C@H](CO)[C@H]2Cn3c(ccc(C4=CCCC4)c3=O)[C@@H]1N2CC1CCCCC1
36	COC(=O)[C@@H]1[C@@H](CO)[C@@H]2Cn3c(ccc(/C=C/c4ccccc4)c3=O)[C@H]1N2CC1CCCC1
37	COP(=S)(OC)SCn1nnc2ccccc2c1=O
38	Cc1ccccc1-c1ccc([C@H]2[C@H]3CN(C(=O)Cc4ccccn4)CCCCN3[C@H]2CO)cc1
39	CCC1(CC)C(=O)NC(=O)N(CCc2ccccn2)C1=O
40	CC=CC(C)=CC(C)C(=O)CC(O)CC1CC(=O)NC(=O)C1 (stereo not given)

assay / compound	33	34	35	36	37	38	39	40
Ecoli rRNA inh RFP	-4.6	1.4	-0.1	35.6	-9.2	2.1	1.0	0.7
FGF22 binding	i	i	i	i	i	i	i	i
AF4-AF9 inh	-1.7	-2.4	1.0	-45.1	2.4	-6.2	-4.0	-4.8
Ecoli rRNA inh OD600	-1.5	1.0	-3.5	-52.7	6.0	-10.5	12.4	13.8
Ecoli rRNA inh	1.6	6.9	-1.8	-9.2	-6.1	-3.0	11.5	3.8

41	COc1ccc(C(c2nnnn2C(C)(C)C)N2CCC3(CC2)C(=O)NCN3c2ccccc2)cc1 (stereo not given)
42	Cc1ccccc1-c1ccc([C@@H]2[C@H]3CN(C(=O)Cc4ccccn4)CCCCN3[C@H]2CO)cc1
43	C/C=C/c1ccc([C@@H]2[C@@H](CO)N3CCCCN(C(=O)Cc4ccncc4)C[C@@H]23)cc1
44	O=c1[nH]c2ccccc2n1C1CCN(C(c2nnnn2-c2ccc3c(c2)OCCO3)C2CC2)CC1 (stereo not given)
45	CCOC(=O)C1(c2ccccc2)Oc2ccccc2C(c2ccc(OC)cc2)=C1C(=O)OC (stereo not given)
46	CC(C)(C)n1nnnc1C(c1ccccc1)N1CCC2(CC1)C(=O)NCN2c1ccccc1 (stereo not given)
47	COc1cc(O)cc2c1cc([N+](=O)[O-])c1c(C(=O)O)cc3c(c12)OCO3
48	C=CCNC(=S)Nc1ccc(OC(=O)Nc2ccc(Cl)c(Cl)c2)cc1

assay / compound	41	42	43	44	45	46	47	48
Ecoli rRNA inh RFP	1.1	-2.4	3.5	11.9	1.6	-3.9	-11.3	-20.2
FGF22 binding	i	i	i	i	i	i	i	i
AF4-AF9 inh	8.5	-4.7	-13.9	0.8	9.3	5.1	0.9	-3.2
Ecoli rRNA inh OD600	-15.3	-9.8	5.5	-14.1	18.3	-28.9	-7.5	-82.3
Ecoli rRNA inh	-13.4	2.1	2.7	-6.1	24.1	-21.1	-10.9	-58.8

49	O=C(O)C1C2c3ccccc3C(O)C1(C(=O)O)c1ccccc12 (stereo not given)
50	O=C(O)C[C@@H]1CC[C@H]2NC[C@H](O)COC[C@@H]2O1
51	CC1=C2CCC3C(CCC4=CC(=O)CCC43C)C2CC1 (stereo not given)
52	Cc1cccc(C)c1-n1nnnc1C(CCc1ccccc1)N1CCC2(CC1)C(=O)NCN2c1ccccc1 (stereo not given)
53	Cc1nn(CC(C)C)c(Cl)c1C(=O)NC1CCCC1
54	C[C@H]1CN([C@@H](C)CO)C(=O)CCCn2cc(nn2)CO[C@@H]1CN(C)C(=O)Oc1cccc2ccccc12
55	CC=C(C)C1(CCC)C(=O)NC(=S)NC1=O
56	O=C1CC(=O)N(Cc2ccccc2)C(=O)N1Cc1ccccc1

assay / compound	49	50	51	52	53	54	55	56
Ecoli rRNA inh RFP	-6.5	-1.9	-32.7	3.5	-2.1	-2.2&5.4	-1.3	14.0
FGF22 binding	i	i	i	i	i	i	i	i
AF4-AF9 inh	-0.3	-3.2	0.1	-0.8	-1.0	-2.2&-1.8	-1.9	-2.0
Ecoli rRNA inh OD600	5.8	19.6	-80.1	11.7	18.2	-3.2&10.9	0.6	2.7
Ecoli rRNA inh	0.5	5.2	-62.6	14.6	4.2	-3.6&20.7	-1.4	0.8

57	COC(=O)C1=C(c2ccc(OCc3ccccc3)cc2)C[C@@H]2CC[C@H]1N2C(=O)NCc1ccc(C(C)(C)C)cc1
58	COc1ccc2nc3c(C)n(C)ccc-3c2c1
59	Cc1ccc(NC(=O)c2ncn(CCCNCCN3CCOCC3)n2)cc1C
60	COc1ccccc1NP1(=O)OCC(C)([N+](=O)[O-])CO1 (stereo not given)
61	CCCN1[C@@H]2Cn3c(ccc(-c4ccc(F)cc4)c3=O)[C@H]1[C@@H](C(=O)OC)[C@@H]2CO
62	CC12CCC(=O)C=C1CC(N1CC1)C1C2CCC2(C)C(O)CCC12 (stereo not given)
63	O=C(Nc1ccc(F)cc1)N1Cc2ccccc2-n2nncc2C1
64	O=C(NC1CCCCC1)N1Cc2cc(N3CCOCC3)ccc2-n2nncc2C1

assay / compound	57	58	59	60	61	62	63	64
Ecoli rRNA inh RFP	2.0	3.7	2.7	-3.6	0.7	-2.1	-5.6	1.5
FGF22 binding	i	i	i	i	i	i	i	i
AF4-AF9 inh	0.1	6.1	1.4	-1.7	0.4	-4.4	-5.7	-1.2
Ecoli rRNA inh OD600	11.4	5.5	13.9	15.1	-1.4	-44.4	-5.6	16.6
Ecoli rRNA inh	5.7	5.7	17.3	9.9	3.2	-22.6	5.5	5.5

65	COC(=O)[C@@H]1[C@@H](CO)[C@@H]2Cn3c(ccc(-c4ccccc4F)c3=O)[C@H]1N2Cc1ccccc1
66	O=P1(c2ccccc2)Nc2ccccc2N1c1ccccc1 (stereo not given)
67	CCNC(=O)N1Cc2ccccc2-n2nncc2C1
68	Cc1cccc(C)c1-n1nnnc1C(c1ccccc1OC(F)(F)F)N1CCC(n2c(=O)[nH]c3ccccc32)CC1 (stereo not given)
69	O=C(Cc1ccccc1)N1CCCCN2[C@@H](CO)[C@@H](c3ccc(-c4ccccc4)cc3)[C@@H]2C1
70	C[C@H](CO)N1C[C@H](C)[C@H](CN(C)C(=O)Oc2ccc3ccccc3c2)OCc2cnnn2CCCC1=O
71	CCOC(=O)C1=C(C)c2ccccc2OC1(C(=O)OCC)c1ccccc1 (stereo not given)
72	COc1ccc(C(=O)CC(c2ccc3c(c2)OCO3)c2c(O)c3ccccc3oc2=O)cc1OC (stereo not given)
73	O=C(Cc1ccncc1)N1CCCCN2[C@H](CO)[C@H](c3ccc(C#CC4(O)CCCC4)cc3)[C@@H]2C1

assay / compound	65	66	67	68	69	70	71	72	73
Ecoli rRNA inh RFP	0.0	-2.1	-1.4	1.7	-13.1	-0.3	2.1	-6.2	-1.2
FGF22 binding	i	i	i	i	i	i	i	i	i
AF4-AF9 inh	-5.0	27.6*	0.8	-0.9	4.3	0.6	-60.5	-3.0	-1.3
Ecoli rRNA inh OD600	6.4	-75.7	7.4	11.5	-70.2	-2.6	-13.6	-26.3	-2.8
Ecoli rRNA inh	-2.0	-57.3	1.5	19.1	-57.7	-5.8	-9.3	-27.6	4.5

Arranged by SMILES length (lowest first): part of the list above.
67	CCNC(=O)N1Cc2ccccc2-n2nncc2C1
66	O=P1(c2ccccc2)Nc2ccccc2N1c1ccccc1 (stereo not given)
73	O=C(Cc1ccncc1)N1CCCCN2[C@H](CO)[C@H](c3ccc(C#CC4(O)CCCC4)cc3)[C@@H]2C1

assay / compound	67	66	73
Ecoli rRNA inh RFP	-1.4	-2.1	-1.2
FGF22 binding	i	i	i
AF4-AF9 inh	0.8	27.6*	-1.3
Ecoli rRNA inh OD600	7.4	-75.7	-2.8
Ecoli rRNA inh	1.5	-57.3	4.5

This is a subset; rates above refer to the full screens.
